miR-21 FLuc: qHTS Assay for Modulators of miRNAs and/orActivators of miR-21; HeLa miR-21 FLuc reporter, luciferase, 48 h; Potency, µM (doses to about 38.3 µM), for the others: at the top dose reporter change, positive = more light; 340,000 tested, under 10 active; AID 2288, 2010; active = well fitted rising curve with a large enough effect; inconclusive = small, poorly fitted or top-dose-only effect; inactive = no such curve, though single readings can be large or run the other way;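 also: % of control where 0% means no effect; miR-21 action dims this reporter so a rising signal means less miR-21 action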
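HeLa cells stably expressing CMV-driven firefly luciferase with a downstream miR-21 binding sequence, endogenously expressing miR-21, were treated with titrations (up to about 40uM final) for 48 hours at 37 degree Celsius. Luciferase luminescence was read after lysis.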
GLA inh pH 4.5: qHTS Assay for Inhibitors of Human alpha-Galactosidase at pH 4.5; purified enzyme, 4-MU-alpha-Gal fluorescence, pH 4.5; Alpha-galactosidase A (Homo sapiens), P06280; activity change, negative = inhibition, % at 105 µM; 230,000 tested, under 10 active; inconclusive = small, poorly fitted or top-dose-only inhibition, or a rising curve; inactive = flat fitted curve, though single readings scatter; no compound was filed as active;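 also: 0% = full activity with enzyme and -100% = basal without enzyme; dose as in the result columns while the protocol names 77 µM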
Target sequence (P06280 whole entry, looked up): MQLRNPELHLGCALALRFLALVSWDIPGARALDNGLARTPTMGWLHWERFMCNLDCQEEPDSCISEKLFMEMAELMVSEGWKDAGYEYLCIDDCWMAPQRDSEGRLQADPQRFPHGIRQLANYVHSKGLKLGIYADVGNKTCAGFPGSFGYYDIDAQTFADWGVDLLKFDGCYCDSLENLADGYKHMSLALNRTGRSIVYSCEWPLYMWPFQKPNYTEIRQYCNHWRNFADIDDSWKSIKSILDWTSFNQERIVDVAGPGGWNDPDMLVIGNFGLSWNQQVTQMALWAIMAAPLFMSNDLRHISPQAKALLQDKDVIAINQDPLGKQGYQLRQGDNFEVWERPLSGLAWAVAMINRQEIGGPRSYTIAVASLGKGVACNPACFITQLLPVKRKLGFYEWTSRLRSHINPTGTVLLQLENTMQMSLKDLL
Rango release inh: qHTS Assay for Inhibitors of RanGTP induced Rango (Ran-regulated importin-beta cargo) - Importin beta complex dissociation; Potency, µM (series often up to 46.1 µM), inactives show at the top dose activity change, negative = inhibition; Biochemical FRET Rango-importin beta, RanGTP-induced dissociation; 340,000 tested, 0.071% active; Snurportin-1 (Homo sapiens) + GTP-binding nuclear protein Ran (Homo sapiens) + Importin …; active means falling FRET ratio curve, often poorly fitted, with flat reads before Ran was added; inconclusive means other falling curves, or compound fluorescence or quenching; inactive means flat or rising ratio curve;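 also: potency is read from the fitted curve at half-maximal effect; % of control where 0% means no effect; nearly all actives have a fitted effect of over 45% in size; -100% = wells without RanGTP and RCC1; the record marks most hits as doubtful in a second field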
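Compounds preincubate 5 min with complex of recombinant Rango and importin beta in PBS with 1 mM DTT. Ran (0.6 uM) loaded with 2 mM GTP plus 0.2 uM RCC1 starts dissociation; FRET is recorded 45 min later.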
Rango complex inh: qHTS Assay for Inhibitors of Rango (Ran-regulated importin-beta cargo) - Importin beta complex formation | Rango CFP/YFP FRET sensor + importin beta, 45 min | Potency, µM (series often up to 92.2 µM), for inactives: at the top dose inhibition of complex formation | 340,000 tested, 0.031% active; active = rising FRET ratio curve, often small or poorly fitted; inconclusive = mostly compound fluorescence or quenching in the first reads; inactive = flat curves in all reads;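 also: potency is read from the fitted curve at half-maximal effect; 0% = DMSO wells and 100% = buffer wells lacking importin beta; nearly all actives have a fitted effect of over 15% in size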
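FRET biosensor (snurportin 1 IBB flanked by EYFP and cerulean), 50 nM, with compound 5 min, then 0.125 microM importin beta in PBS, 1 mM DTT, 0.02% Tween-20, 0.1% BSA. CFP/YFP ratio read after 45 min at room temperature; pre-read flags interference.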
An asterisk follows results filed as active; u = inconclusive; x = not tested or not shown; & = joins results of further samples. A portion of the library (hit frequency here may not be typical).

[1] O=C(CN1C(=O)C2C3CCC(C3)C2C1=O)N1CCN(Cc2ccccc2)CC1 (configuration not stated)
[2] Cn1c(=O)c(C(=O)CN2CCOCC2)c(N)n(Cc2ccccc2)c1=O
[3] COCCn1c(=S)[nH]c2cc(C(=O)NCCc3ccc(OC)c(OC)c3)ccc2c1=O
[4] Cn1c2c(c(=O)n(C)c1=O)C(c1ccccc1Cl)C(C#N)=C(N)O2 (configuration not stated)
[5] O=C(COC(=O)c1cc(=O)[nH]c2ccccc12)Nc1nc(-c2cccc(Br)c2)cs1
[6] COc1ccc2[nH]c(C(O)(Cc3cccnc3)Cc3cccnc3)cc2c1
[7] COc1ccccc1C(=O)NCCNC(=O)c1ccco1
[8] CCn1c(SCC(=O)c2[nH]c(C)c(C(C)=O)c2C)nnc1-c1ccncc1
Screen / compound no.	1	2	3	4	5	6	7	8
miR-21 FLuc	-1%	-4%	5%	-3%	-26%	0%	-13%	0%
GLA inh pH 4.5	5	1	3	2	-24	5	2	3
Rango release inh	0%	9%	-7%	-11%	11%	-6%	-3%	2%
Rango complex inh	0.7%	-1.4%	-0.4%	-2.3%	-1.9%	3.3%	-0.6%	-1.7%

Results in GLA inh pH 4.5, Rango complex inh and miR-21 FLuc, for 5 of the compounds above:
cpd	mol	GLA inh pH 4.5	Rango complex inh	miR-21 FLuc
4	Cn1c2c(c(=O)n(C)c1=O)C(c1ccccc1Cl)C(C#N)=C(N)O2 (configuration not stated)	2	-2.3%	-3%
5	O=C(COC(=O)c1cc(=O)[nH]c2ccccc12)Nc1nc(-c2cccc(Br)c2)cs1	-24	-1.9%	-26%
6	COc1ccc2[nH]c(C(O)(Cc3cccnc3)Cc3cccnc3)cc2c1	5	3.3%	0%
7	COc1ccccc1C(=O)NCCNC(=O)c1ccco1	2	-0.6%	-13%
8	CCn1c(SCC(=O)c2[nH]c(C)c(C(C)=O)c2C)nnc1-c1ccncc1	3	-1.7%	0%

New compounds follow
[9] CN(C)c1cccc(C(=O)OCC(=O)Nc2ccccc2-c2ccccc2)c1
[10] O=[N+]([O-])c1ccc(C(=S)N2CCN(c3ccc(F)cc3)CC2)cc1
[11] COCC(=O)N1CCCC(N(C)CCc2ccc(OC)c(OC)c2)C1 (configuration not stated)
[12] CC(=O)n1cc(/C=N/NC(N)=S)c2ccccc21
[13] C=CCn1c(-c2cccs2)nc2ccccc21
[14] COc1ccccc1NC(=O)c1cnc(SC)nc1
[15] Cc1ccc(C2(c3ccc(C)cc3)NC(=O)N(CC(=O)NCCCN3CCCC3=O)C2=O)cc1
[16] CC1CCCCC1NC(=O)c1cccc(S(=O)(=O)N2CCN(C)CC2)c1 (configuration not stated)
Screen / compound no.	9	10	11	12	13	14	15	16
miR-21 FLuc	-1%	1%	-19%	-22%	-30%	-20%	x	x
GLA inh pH 4.5	6	1	x	-1	-2	x	x	x
Rango release inh	15%	3%	-10%	u	-16%	-5%	-3%	8%
Rango complex inh	-2.7%	2.5%	-0.7%	0.8%	2.2%	u	0.7%	-1.9%

[17] CCOC(=O)CN1C(=O)c2ccccc2Sc2ncccc21
[18] O=C1NC[C@H](Cc2ccc(O)cc2)N(CC2CCCCC2)C1=O
[19] COc1ccc(-n2c(Cc3cccn3C)nnc2SCC(=O)Nc2cc(Cl)ccc2OC)cc1
[20] Cc1ccc(C(=O)O/N=C(\N)c2ccccn2)c(C)c1
[21] Cc1cc(-c2csc3nc[nH]c(=S)c23)cc(C)c1C
[22] Cc1ccc2cc(/C=N/Nc3nc4ccccc4[nH]3)c(Cl)nc2c1
[23] CCNC(=O)N(CC)C[C@H]1N[C@@](C)(C(=O)OC)[C@H]2C(=O)N(Cc3ccccc3)C(=O)[C@@H]12
[24] COC(=O)CCCc1nc2ccccc2s1
Screen / compound no.	17	18	19	20	21	22	23	24
miR-21 FLuc	-14%&-1%	0%	-7%	u	7%	18%	x	3%
GLA inh pH 4.5	x	7	-1	x	3	8	x	3
Rango release inh	-5%	3%	3%	18%	13%	-1%	-22%	8%
Rango complex inh	3.8%	-2.7%	0.0%	1.4%	2.8%	-2.7%	0.1%	0.6%

Ordered by the number under GLA inh pH 4.5 (low to high): 3 from the list above
[19] COc1ccc(-n2c(Cc3cccn3C)nnc2SCC(=O)Nc2cc(Cl)ccc2OC)cc1
[24] COC(=O)CCCc1nc2ccccc2s1
[18] O=C1NC[C@H](Cc2ccc(O)cc2)N(CC2CCCCC2)C1=O
Screen / compound no.	19	24	18
miR-21 FLuc	-7%	3%	0%
GLA inh pH 4.5	-1	3	7
Rango release inh	3%	8%	3%
Rango complex inh	0.0%	0.6%	-2.7%

Later entries
[25] CC(=O)Nc1cc(C)nn1-c1nc(C)cc(C)n1
[26] O=C1c2ccccc2C(O)N1Cc1cccs1 (configuration not stated)
[27] Cc1[nH]nc2c1C(c1ccc(-c3ccc(Cl)cc3)o1)C(C#N)=C(N)O2 (configuration not stated)
[28] CCOc1ccc(CCNC(=O)Cn2nc(C)c3c(C)n(-c4ccccc4)nc3c2=O)cc1
[29] COc1ccccc1Nc1nc(-c2sc(NC(=O)CC(C)C)nc2C)cs1
[30] CN(CC(=O)Nc1ccc(F)cc1)C(=O)COC(=O)c1cccc(N(C)C)c1
[31] Cc1cccc2c1N1C(=O)c3c(C(=O)O)cccc3C1CC2C (configuration not stated)
[32] CC(C)C(=O)N1CCC2(CC1)Oc1ccc(F)cc1C(=O)C21CC(c2ccccc2)=NO1 (configuration not stated)
Screen / compound no.	25	26	27	28	29	30	31	32
miR-21 FLuc	-2%	-1%	-4%	-1%	8%	x	-2%	9%
GLA inh pH 4.5	7	6	-7	x	2	x	1	-17
Rango release inh	2%	3%	-27%	22%	-1%	-1%	3%	7%
Rango complex inh	-2.4%	-1.5%	u	-0.7%	-3.7%	0.0%	0.0%	-3.8%

[33] Cc1cc(C)c2ccc(/C=N/O)nc2c1O
[34] O=C(CN1C(=O)NC2(CCCCCC2)C1=O)NCCc1ccccc1
[35] CC(=O)Nc1ccc(S(=O)(=O)N2CCC(C(N)=O)(N3CCCCC3)CC2)cc1
[36] CSc1ccc(/C=N/N2CCN(c3ccccc3)CC2)cc1
[37] CCCn1nnnc1NC(=O)CSc1ccc(Cl)cc1
[38] CCCCNC(=O)CCn1nc(-c2ccc(Cl)cc2)c2ccccc2c1=O
[39] Cc1ccc(O)c(/C=N/NC(=O)Cc2ccc(Cl)cc2)c1
[40] CN(C[C@H](Cc1ccccc1)N(C[C@H](c1ccccc1)N(CCc1ccccc1)N=O)N=O)N=O
Screen / compound no.	33	34	35	36	37	38	39	40
miR-21 FLuc	13%	x	2%	-6%	-6%	-1%&4%	8%	3%
GLA inh pH 4.5	0	x	x	5	4	-1	x	0
Rango release inh	2%	-15%	13%	4%	7%	-1%	17%	10%
Rango complex inh	5.1%	6.0%	2.5%	1.5%	-3.1%	2.2%	-1.2%	-4.0%

[41] COCCCN1C(=O)c2ccc(C(=O)NCCc3ccccc3)cc2C1=O
[42] CC(Oc1ccc(Cl)cc1Cl)c1nc(-c2ccc(NC(=O)c3ccccn3)cc2)no1 (configuration not stated)
[43] COc1cc(/C=C/C(=O)OCC(=O)Nc2ccccc2Cl)cc(OC)c1OC
[44] CC(C)c1ccc(NC(=O)N2CCCC2C(=O)Nc2ccc(-n3cnnn3)cc2)cc1 (configuration not stated)
[45] OC1(c2ccc(OC(F)F)cc2)CSC(=Nc2cccnc2)N1C1CC1 (configuration not stated)
[46] CCN1CCN(c2nc(N(C)c3ccccc3)nc(N)c2[N+](=O)[O-])CC1
[47] COc1ccccc1N1CCN(C(=O)C2CC2)CC1
[48] CC(=O)Nc1ccc(NS(=O)(=O)c2ccc(OC(C)C(=O)N3CCOCC3)cc2)cc1 (configuration not stated)
Screen / compound no.	41	42	43	44	45	46	47	48
miR-21 FLuc	-31%	-52%	0%	-27%	23%	-12%	x	x
GLA inh pH 4.5	x	-3	4	11	-1	-9	x	x
Rango release inh	5%	-7%	1%	0%	3%	1%	30%	5%
Rango complex inh	0.0%	-1.1%	1.3%	-0.4%	5.2%	0.1%	2.9%	3.1%

[49] Cc1noc(-c2ccc(Cl)cc2)c1C(=O)O/N=C(\N)c1ccc(C(C)(C)C)cc1
[50] COc1ccc(Cl)cc1C(=O)O/N=C(\N)c1ccncc1
[51] COc1ccc(CC(=O)NNC(=O)[C@@H]2CCCC[C@@H]2C(=O)O)cc1
[52] COc1ccc(C(C)=O)cc1CSc1nc2ccccc2o1
[53] CCOc1ccc(N2CC(O)=C(c3nc4ccccc4c(=O)[nH]3)C2=N)cc1
[54] Cc1ccc(NC(=O)/C=C/c2cccs2)c([N+](=O)[O-])c1
[55] COc1cccc(C(=O)N(c2ccc(C)cc2)C2C=CS(=O)(=O)C2)c1 (configuration not stated)
[56] CCC(C)(C(=O)NC1CCCC1)N(Cc1cccs1)C(=O)c1ccccn1 (configuration not stated)
Screen / compound no.	49	50	51	52	53	54	55	56
miR-21 FLuc	u	-27%	-1%	-9%	0%	-6%	-1%	-2%
GLA inh pH 4.5	-6	-8	x	-3	8	3	-7	2
Rango release inh	1%	0%	7%	1%	4%	-16%	-21%	-5%
Rango complex inh	1.2%	-3.1%	-0.6%	-6.0%	-2.9%	u	-0.3%	0.5%

[57] Cc1ccc(NC(=O)CCNS(=O)(=O)c2cccc3nonc23)cc1
[58] Fc1ccc(-c2ccc(-c3nn4c(-c5ccco5)nnc4s3)o2)cc1
[59] CCOC(=O)c1c(NC(C)=O)sc2c(O)c(CN3CCN(CC)CC3)ccc12
[60] O=C(Nc1ccccc1F)c1ccc(C(=O)c2ccccc2)cc1
[61] O=C(Nc1ccc(F)cc1)C1CCCN1S(=O)(=O)c1cccc2nsnc12 (configuration not stated)
[62] CCCc1c(C(=O)OCC)sc(N)c1C#N
[63] Cc1cc(C)n2nc(C(=O)OCC(=O)Nc3ccc4c(c3)OC(F)(F)O4)nc2n1
[64] C/C(CC(=O)Nc1ccc(C)c(Cl)c1)=N\NC(=O)c1ccccn1
Screen / compound no.	57	58	59	60	61	62	63	64
miR-21 FLuc	1%	-19%	-3%	-56%	-11%	-7%	-2%	-49%
GLA inh pH 4.5	-3	6	1	x	-3	-5	7	x
Rango release inh	-1%	3%	1%	-1%	20%	-3%	2%	-1%
Rango complex inh	-3.0%	-1.5%	2.4%	5.1%	-0.3%	3.2%	0.1%	-2.0%

[65] COc1ccc(C(=O)NC(=S)NCc2cccnc2)cc1[N+](=O)[O-]
[66] COc1ccc2[nH]c(=O)c(CNc3ccc(C)cc3C)cc2c1
[67] CC1CC(C)CN(CCCNC(=O)CN2C(=O)CSc3ccc(S(=O)(=O)N4CCCCC4)cc32)C1 (configuration not stated)
[68] CC(C)(C)C(=O)Nc1ccccc1N1CCN(C(=O)c2ccc(Cl)cc2)CC1
Screen / compound no.	65	66	67	68
miR-21 FLuc	5%	-28%	-1%	-5%
GLA inh pH 4.5	3	-14	x	-2
Rango release inh	26%	u	1%	1%
Rango complex inh	3.4%	u	-0.4%	-0.7%
